Compound activity: PubChem BioAssay, ICCB-Longwood Screening Facility, Harvard Medical School
Mtb MenB inh: Mtb MenB enzyme inhibition; P9WNP5; inhibition, %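 (about 12 µg/mL by stock and volumes)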; actives 0.43% (n = 100,000); MenB enzyme assay, absorbance read-out; some hits fall short of the stated cut;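 active = mean of two replicates above 30%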;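 also: 0% = no compound and 100% = wells with inactive enzyme; the first replicate is given; strong numbers were not always called active; inactives centre near -10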
PV pol inh: poliovirus RNA polymerase inhibition | P03300 | % elongation, % (compound at 16.7 µg/mL) | poliovirus polymerase elongation, fluorescence polarization; stronger effect = lower value | AID 588519 | actives 0.66% (n = 150,000); in the data active = % elongation below about 90%; also: some results filed as inactive read as strong as hits
Target sequence (P03300 1749-2209 limits assumed): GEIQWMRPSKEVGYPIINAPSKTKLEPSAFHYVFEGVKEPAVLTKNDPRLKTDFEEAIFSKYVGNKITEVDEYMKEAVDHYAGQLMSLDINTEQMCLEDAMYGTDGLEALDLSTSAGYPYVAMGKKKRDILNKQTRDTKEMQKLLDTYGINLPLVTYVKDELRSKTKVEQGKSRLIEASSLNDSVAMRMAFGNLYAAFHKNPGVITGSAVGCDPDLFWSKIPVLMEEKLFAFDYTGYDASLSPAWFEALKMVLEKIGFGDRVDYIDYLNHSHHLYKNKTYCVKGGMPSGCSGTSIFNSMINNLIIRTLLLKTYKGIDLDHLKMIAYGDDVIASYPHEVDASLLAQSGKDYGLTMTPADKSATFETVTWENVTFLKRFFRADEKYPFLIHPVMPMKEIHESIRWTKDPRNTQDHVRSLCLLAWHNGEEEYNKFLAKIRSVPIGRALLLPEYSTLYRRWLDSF
MbtI inh: blocks the Mycobacterium tuberculosis siderophore enzyme MbtI; P9WFX0; purified MbtI enzyme, fluorescence intensity read-out; actives 0.89% (n = 100,000); inhibition, %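 (about 17 µg/mL by stock and volumes)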;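 active = above 50% in both replicates, above 80% if mildly self-fluorescent; inactive = the rest, strongly fluorescent compounds included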;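 also: 0% = mean of negative and 100% = mean of positive controls; one replicate is shown; some compounds called inactive have numbers as strong as hits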
Target sequence (P9WFX0 whole entry, looked up): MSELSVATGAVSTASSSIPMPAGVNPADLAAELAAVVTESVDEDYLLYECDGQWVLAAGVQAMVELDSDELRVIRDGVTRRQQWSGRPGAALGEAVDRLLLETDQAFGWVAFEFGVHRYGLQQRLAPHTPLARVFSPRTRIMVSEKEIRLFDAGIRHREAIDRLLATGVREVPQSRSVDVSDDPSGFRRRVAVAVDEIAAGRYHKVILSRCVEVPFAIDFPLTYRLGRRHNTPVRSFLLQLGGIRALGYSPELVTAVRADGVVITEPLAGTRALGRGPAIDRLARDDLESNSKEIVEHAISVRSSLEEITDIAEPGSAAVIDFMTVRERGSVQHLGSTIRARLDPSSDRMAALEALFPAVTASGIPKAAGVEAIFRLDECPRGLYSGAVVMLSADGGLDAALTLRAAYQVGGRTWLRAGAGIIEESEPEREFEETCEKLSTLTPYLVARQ
PV pol inh intensity: further read-out of PV pol inh, marked with its call; % elongation; measured here: total intensity read-out; formula for this scale not given here;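 total fluorescence in place of polarization; lower means less elongation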
* hit, by the source's call; i = inactive; nt = not tested or not shown.

Keys: A = Mtb MenB inh; B = PV pol inh; C = PV pol inh intensity; D = MbtI inh
(1) O=C(C1Cc2ccccc2CN1S(=O)(=O)c1cccs1)N1CCOCC1 (stereo unspecified)
  A: 3; B: 104; C: 101; D: -10

(2) O=C1/C(=C/c2ccccc2)CC/C1=C1/NCCN1C1CC(=O)N(c2cccc(F)c2)C1=O (stereo unspecified)
  A: -4; B: 105; C: 101; D: 20

(3) CS(=O)(=O)n1nc(-c2cccnc2)nc1NCc1ccccc1
  A: -11; B: 101; C: 105; D: -22

(4) C=CCn1c(=S)[nH]c2sc3c(c2c1=O)CC(C)(C)OC3
  A: -20; B: 101; C: 102; D: 4

(5) CC(C)CCNC(=O)C1C2C(=O)N(Cc3ccccc3)CC23C=CC1(C)O3 (stereo unspecified)
  A: 11; B: 102; C: 104; D: 6

(6) N#CCn1c(COC(=O)C23CC4CC(CC(O)(C4)C2)C3)nc2ccccc2c1=O
  A: -12; B: 106; C: 109; D: 16

(7) CNc1nc(-c2cccs2)cc(C(F)(F)F)n1
  A: -16; B: 105; C: 92; D: nt

(8) Cc1ccc(NC(C)C(=O)N/N=C/c2ccco2)cc1 (stereo unspecified)
  A: -21; B: 104; C: 102; D: 5

(9) Cc1ccc(NC2=CC(=O)CC(c3ccc(Cl)cc3)C2)cc1 (stereo unspecified)
  A: -2; B: 106; C: 110; D: nt

(10) CC1CC(C)CN(C(=O)c2ccccc2NS(=O)(=O)c2ccc(F)cc2)C1 (stereo unspecified)
  A: nt; B: 102; C: 102; D: -9

(11) COc1ccc(-n2c(=S)[nH]c3cc(C(=O)N4CCN(c5ccccc5)CC4)ccc3c2=O)cc1
  A: -33; B: 103; C: 106; D: -12

(12) Cc1cc(C)n(C(N)=S)n1
  A: 4; B: 86; C: 102; D: nt

(13) CCCCNC(=O)C1CC(=O)N(CCC(C)C)C1 (stereo unspecified)
  A: -13; B: 103; C: 103; D: -4

(14) CCn1c(CSc2nc3ccccc3s2)nnc1SCC(=O)N(c1ccccc1)C(C)C
  A: -19; B: 102; C: 102; D: 3

(15) CCOC(=O)c1sc(NS(=O)(=O)c2ccccc2)nc1C
  A: -19; B: 103; C: 104; D: 12

(16) CCC(=O)OCCN1C(=O)c2ccccc2C1=O
  A: 15; B: 101; C: 101; D: -1

(17) O=C(c1cncn1-c1ccccc1)N(Cc1ccco1)Cc1cccs1
  A: -13; B: 110; C: 109; D: 10

(18) CCn1c(SCC(=O)OCC(=O)c2ccc(Br)s2)nnc1-c1cccs1
  A: -29; B: 105; C: 109; D: -6

(19) CCn1c(=O)c2cc(C(=O)NCc3ccc(C)o3)sc2c2ccccc21
  A: 8; B: 102; C: 104; D: 59

(20) CSc1ccccc1NC(=O)CN(C)C(=O)COc1ccc(-c2nnco2)cc1
  A: -12; B: 99; C: 100; D: -12

(21) COc1ccc(/C=N/O)cc1OC
  A: 12; B: 105; C: 98; D: 6

(22) Cc1ccc(SCc2ccccc2-c2nc3ccccc3[nH]2)cc1
  A: -5; B: 99; C: 97; D: -3

(23) O=C(/C=C/c1ccco1)Nc1ccc2nc3n(c(=O)c2c1)CCCC3
  A: -19; B: 103; C: 106; D: 13

(24) O=C(CCc1c[nH]c2ccccc12)N1CCN(c2ccccc2)CC1
  A: 2; B: 101; C: 98; D: -12

(25) COc1cc(C(=O)/C=C/Nc2ccc(N(C)C)cc2)cc(OC)c1OC
  A: -39; B: 105; C: 99; D: 19

(26) O=C(/C=C/c1ccccc1)N1C(=O)OCC1c1ccccc1 (stereo unspecified)
  A: -3; B: 109; C: 104; D: nt

(27) Cc1cc(C)cc(CC(c2nc3ccccc3[nH]2)C(C)c2nc3ccccc3[nH]2)c1 (stereo unspecified)
  A: 9; B: 102; C: 105; D: nt

(28) CC(C)(C)c1cc(-c2ccccc2)c(C#N)c(N)n1
  A: -27; B: 101; C: 101; D: i

(29) CS(=O)(=O)N(Cc1ccccc1)Cc1ccccc1
  A: -25; B: 106; C: 110; D: nt

(30) COC(=O)CC(=O)c1cc2ccccc2oc1=O
  A: 2; B: 103; C: 105; D: -6

An excerpt from above, limited to PV pol inh intensity and PV pol inh:
nr	smiles	PV pol inh intensity	PV pol inh
26	O=C(/C=C/c1ccccc1)N1C(=O)OCC1c1ccccc1 (stereo unspecified)	104	109
30	COC(=O)CC(=O)c1cc2ccccc2oc1=O	105	103

Next part.
Keys: A = Mtb MenB inh; B = PV pol inh; C = PV pol inh intensity; D = MbtI inh
(31) CCOC(=O)/C(=C\Nc1ccc(F)c(Cl)c1)S(=O)(=O)c1ccc(Cl)cc1
  A: -8; B: 108; C: 110; D: -4

(32) CNC(=O)c1cc(C#N)c(SCC(=O)O)nc1N
  A: 5; B: 96; C: 122; D: 108

(33) O=C(C1CCCCN1S(=O)(=O)c1ccccc1)N1CCCC1 (stereo unspecified)
  A: nt; B: 103; C: 95; D: -9

(34) Cc1ccc(C(=O)CCC(=O)N2CCCCCC2)cc1
  A: 2; B: 110; C: 113; D: -1

(35) O=P1(NCc2ccco2)C=C(c2ccccc2)SC(c2ccccc2)=C1
  A: -29; B: 105; C: 100; D: -9

(36) O=C(CSc1nc2ccccc2nc1N1CCOCC1)N1CCC2(CC1)OCCO2
  A: 1; B: 101; C: 105; D: 0

(37) CCCc1nc(=S)c2ccccc2[nH]1
  A: -26; B: 102; C: 99; D: 92*

(38) CCC(C)NC(=O)c1cc(Nc2ccc(C(C)C)cc2)nc2ccccc12 (stereo unspecified)
  A: -15; B: 102; C: 103; D: 20

(39) COc1ccc(OC)c(Nc2nc(-c3c(C)nc4sccn34)cs2)c1
  A: -18; B: 102; C: 107; D: nt

(40) Cc1nc2ccc(N=Cc3ccccc3O)cc2s1
  A: -16; B: 104; C: 110; D: nt

(41) CCOc1ccc(OCC)c(CC2OC(c3ccccc3)=NC2=O)c1 (stereo unspecified)
  A: -1; B: 104; C: 112; D: nt

(42) O=C(Oc1ccccc1)C1CCCN(C2=NS(=O)(=O)c3ccccc32)C1 (stereo unspecified)
  A: -37; B: 104; C: 110; D: -10

(43) O=C(Nc1ccc(N2CCCCC2)cc1)c1cccnc1
  A: -26; B: 100; C: 101; D: 3

(44) COC(=O)COc1ccc(S(=O)(=O)Nc2ccc(F)c(Cl)c2)cc1
  A: -9; B: 100; C: 101; D: 5

(45) O=C(NC1CCCC1)C1c2ccccc2Oc2ccccc21
  A: -6; B: 104; C: 111; D: nt

(46) C=C1c2ccccc2N=C(SCC(=O)Nc2ccc(OC(F)F)cc2)N1C
  A: -19; B: 104; C: 105; D: 3

(47) CCC1(CC)OC(c2cccnc2)Nc2ccccc21 (stereo unspecified)
  A: -12; B: 108; C: 112; D: nt

(48) Cc1cccc(COn2cccc(C(=O)Nc3ccc(Cl)cc3C(F)(F)F)c2=O)c1
  A: 7; B: 103; C: 100; D: 4

(49) CN(C)C1(CNC(=O)CNC(=O)c2ccccc2Br)CCCCC1
  A: 6; B: 103; C: 101; D: 4

(50) O=C(COC(=O)c1ccc(Br)cc1)Nc1cccc2ccccc12
  A: nt; B: 103; C: 105; D: -6

(51) CCCCN1C(=O)C2C(c3ccccc3O)NC(C)(C(=O)O)C2C1=O (stereo unspecified)
  A: -15; B: 109; C: 109; D: nt

(52) Cc1ccc(NC(=O)c2cccc(Oc3ccc(C#N)cc3)c2)cc1
  A: -25; B: 98; C: 95; D: 5

(53) CC1(O)N(CC(=O)O)C(=O)OC12CCCCC2 (stereo unspecified)
  A: -10; B: 106; C: 115; D: nt

(54) C=C(C)C1CC=C(CN2CC(C)OC(C)C2)CC1 (stereo unspecified)
  A: -14; B: 101; C: 101; D: 2

(55) O=C(Nc1ccccc1)c1cnc2n(c1=O)CCS2
  A: -7; B: 98; C: 101; D: 33

(56) CCOc1ccccc1N1CCN(C(=O)CC(C)(C)C)CC1
  A: -7; B: 98; C: 100; D: 0

(57) CCNC(=O)c1cc2c(=O)n3ccccc3nc2n(C(C)C)c1=N
  A: -167; B: 100; C: 102; D: i

(58) COc1c(NC(=O)N(C)C)csc1Cl
  A: 3; B: 106; C: 97; D: 0

(59) Cc1ccc2c(c1)C1OCCC1C(c1cccs1)N2 (stereo unspecified)
  A: -38; B: 101; C: 102; D: -1

(60) C/C=C/c1ccc(Oc2nnc(C)c3ccccc23)c(OC)c1
  A: -19; B: 102; C: 104; D: nt

(61) CCn1c(=O)c(C(=O)CSc2nnc(NC3CC3)s2)c(N)n(Cc2ccccc2)c1=O
  A: -4; B: 104; C: 107; D: -8

(62) COc1ccc(CSC(=N)N)cc1Cl
  A: 38; B: 100; C: 102; D: -7

(63) CCOC(=O)c1[nH]c(C)c(C(=O)N2CCc3ccccc3C2)c1C
  A: -15; B: 101; C: 104; D: -1

(64) CC(C)n1nnc(CC(=O)NN)n1
  A: -21; B: 102; C: 106; D: -12

(65) N#CC(C#N)=C1N=NNN1c1ccccc1
  A: -14; B: 105; C: 110; D: nt

(66) NC(=S)NC(=O)/C=C/c1ccccc1
  A: -11; B: 102; C: 107; D: 4

(67) Nc1nc(N)c2[nH]c(C3CCCCC3)nc2n1
  A: -6; B: 79*; C: 85*; D: 79

(68) COc1ccc(/C=c2/[nH]/c(=C/C(=O)c3ccccc3)c(=O)[nH]c2=O)cc1OC
  A: -28; B: 130; C: 151; D: nt

(69) COc1cc2c(cc1OC)CN(C(=O)/C=C/c1ccc(F)cc1)CC2
  A: -14; B: 102; C: 114; D: 7

(70) CCc1nc2sc3c(c2c(=O)[nH]1)CCCC3
  A: nt; B: 104; C: 108; D: -8

(71) CC1CC(C)CN(C(=O)CSc2nc3ccsc3c(=O)n2Cc2ccccn2)C1 (stereo unspecified)
  A: -24; B: 103; C: 103; D: -3

(72) O=C(CN1CCOCC1)Nc1scc2c1c(=O)oc1ccccc12
  A: -12; B: 102; C: 103; D: 10

(73) CS(=O)(=O)n1c(=O)sc2ccccc21
  A: -26; B: 101; C: 101; D: 14

(74) COC(=O)C1CCN1CC1CCCO1 (stereo unspecified)
  A: -25; B: 105; C: 112; D: -5

(75) CCN(CC)C(=O)Oc1c(Br)cc(Br)c2ccc(C)nc12
  A: -17; B: 102; C: 97; D: -7

(76) CCC(=O)Nc1nnc(-c2ccco2)o1
  A: -16; B: 98; C: 100; D: 6

(77) CCc1nnc(NC(=O)CCC(=O)N2CC3(C)CC2CC(C)(C)C3)s1 (stereo unspecified)
  A: -37; B: 107; C: 103; D: -5

(78) CC(=C1C(=O)c2ccccc2C1=O)N1CCC(C(N)=O)(N2CCCCC2)CC1
  A: -29; B: 101; C: 99; D: 7

(79) CC(=O)Nc1cc(C(=O)O)ccc1S(=O)(=O)c1ccc(C)cc1
  A: -3; B: 99; C: 100; D: 9

(80) CCCc1nn2c(=O)cc(COc3ccc(/C=C(\C#N)C(=O)NCc4ccco4)cc3)nc2s1
  A: -7; B: 102; C: 105; D: 1

(81) N#CC(C#N)=Cc1cc(Br)cs1
  A: -48; B: 105; C: 97; D: -10

(82) CCc1cccc(N2C(=O)CCC2(C)C(=O)NC2CCCC2)c1 (stereo unspecified)
  A: 8; B: 102; C: 105; D: -3

Gathered by group: the compounds so far containing an NH in an aromatic ring (ten)
Keys: A = Mtb MenB inh; B = PV pol inh; C = PV pol inh intensity; D = MbtI inh
(4) C=CCn1c(=S)[nH]c2sc3c(c2c1=O)CC(C)(C)OC3
  A: -20; B: 101; C: 102; D: 4

(11) COc1ccc(-n2c(=S)[nH]c3cc(C(=O)N4CCN(c5ccccc5)CC4)ccc3c2=O)cc1
  A: -33; B: 103; C: 106; D: -12

(22) Cc1ccc(SCc2ccccc2-c2nc3ccccc3[nH]2)cc1
  A: -5; B: 99; C: 97; D: -3

(24) O=C(CCc1c[nH]c2ccccc12)N1CCN(c2ccccc2)CC1
  A: 2; B: 101; C: 98; D: -12

(27) Cc1cc(C)cc(CC(c2nc3ccccc3[nH]2)C(C)c2nc3ccccc3[nH]2)c1 (stereo unspecified)
  A: 9; B: 102; C: 105; D: nt

(37) CCCc1nc(=S)c2ccccc2[nH]1
  A: -26; B: 102; C: 99; D: 92*

(63) CCOC(=O)c1[nH]c(C)c(C(=O)N2CCc3ccccc3C2)c1C
  A: -15; B: 101; C: 104; D: -1

(67) Nc1nc(N)c2[nH]c(C3CCCCC3)nc2n1
  A: -6; B: 79*; C: 85*; D: 79

(68) COc1ccc(/C=c2/[nH]/c(=C/C(=O)c3ccccc3)c(=O)[nH]c2=O)cc1OC
  A: -28; B: 130; C: 151; D: nt

(70) CCc1nc2sc3c(c2c(=O)[nH]1)CCCC3
  A: nt; B: 104; C: 108; D: -8

Not a hit list. Share with any hit: about 2%.
